Assay outcomes: PubChem, several laboratories
ALR inh – blocks human ALR sulfhydryl oxidase activity. 290,000 compounds, 3.8% hits. inhibition, % (no concentration beside the values). AID 485317. P55789. purified ALR, DTT oxidation, H2O2 HRP-luminol luminescence;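 active = mean and each replicate at 75% or more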;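 also: stock transfer was 7.5 nL into about 7.5 µL; 0% = neutral wells and 100% = wells with inactivated enzyme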
Target sequence (P55789 whole entry, looked up): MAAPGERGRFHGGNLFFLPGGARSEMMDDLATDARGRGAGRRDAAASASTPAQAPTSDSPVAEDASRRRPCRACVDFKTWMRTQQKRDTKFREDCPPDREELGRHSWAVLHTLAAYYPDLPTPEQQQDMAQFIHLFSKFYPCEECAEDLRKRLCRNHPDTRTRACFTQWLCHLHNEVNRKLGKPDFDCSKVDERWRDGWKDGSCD
rRNA inh HTS – inhibitors of bacterial rRNA selective over humanized ribosomes. E. coli WT GFP vs humanized-ribosome RFP mutants, fluorescence, 24 h; stronger effect = lower value; DMSO median 0, no signal -100. GFP signal change (wild-type ribosome), % (no concentration beside the values). 350,000 compounds, 1.6% hits. AID 720706;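 active = significant combined selectivity score with lowered wild-type GFP, culture density cut under 30%, mutant RFP and density less affected; inactive = any of these conditions unmet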; also: one replicate is shown; some compounds called inactive have numbers as strong as hits
B2AR ag – activates human beta-2 adrenergic receptor causing internalization; P07550; Am2.2-beta2AR cells, FAP receptor internalization, flow cytometry; reference of the scale not given here; response, % (test concentration not listed); 340,000 compounds, 0.43% hits;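 active = response above a set limit, near 3 SD of response in nonfluorescent compounds, cut at about 42% in these data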;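 also: stock transfer was 100 nL into about 11 µL; a reference agonist was the positive control; negative values mostly stem from fluorescent compounds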
FGF22 binding – binders of recombinant human FGF22 by thermal shift | Q9HCT0 | SYPRO orange fluorescence; percent of sucrose octasulfate shift, DMSO zero | calls only at 9.99 µM | 340,000 compounds, 1.5% hits;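 active = melting point raised past a set limit in the mean and every replicate; three in four hits are not shown here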
Target sequence (Q9HCT0 whole entry, looked up): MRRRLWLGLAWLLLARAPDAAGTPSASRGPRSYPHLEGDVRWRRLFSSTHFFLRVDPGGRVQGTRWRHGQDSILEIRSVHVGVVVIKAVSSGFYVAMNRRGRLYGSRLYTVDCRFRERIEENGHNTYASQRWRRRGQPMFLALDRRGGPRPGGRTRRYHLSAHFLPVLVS
Ecoli growth – blocks Escherichia coli growth; 330,000 compounds, 0.21% hits; OD600 absorbance (no concentration beside the values); OD600, 23 h; stronger effect = lower value;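 active = OD600 absorbance below the run mean of sample wells minus 3.6 SD, in any replicate, cut at about 0.56 in these data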;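 also: stock transfer was 300 nL into about 60 µL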
UCH37 DUB inh – blocks the human deubiquitinase UCH37 | purified proteasome/UCH37, Ub-AMC cleavage fluorescence | AID 588478 | 330,000 compounds, 0.33% hits | inhibition, % (concentration not given with the values) | Q9Y5K5;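 active = mean of two replicates above 20%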;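 also: 0% = compound-free wells with enzyme and 100% = wells lacking proteasome; stock transfer was 100 nL into about 20 µL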
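Schedule: 30 min plus 25 min, room temperature / Material: human UCH37 within purified proteasomes / Technique: AMC fluorescence intensity at 355/460 nm / Buffer or medium: pH 7.4 Tris-HCl (50 mM) with ovalbumin, ATP-MgCl2, DTT / Controls: wells without proteasome as full block, compound-free enzyme plus substrate as uninhibited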
HNF4A DNA FP – change in binding of human HNF4 alpha to DNA. 360,000 compounds, 0.3% hits. activity change, % at 10 µM. HNF4a-FITC DNA binding, fluorescence polarization, 1 h. AID 1224865. P41235; in the data active = activity change above about 30%, passing the limit was not always enough;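 also: controls were the assay level and a saturating level of protein; the project sought stronger binding though the title names inhibitors; some compounds called inactive have numbers as strong as hits; positive values seem to mean higher polarization but the record does not say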
Target sequence (P41235 whole entry, looked up): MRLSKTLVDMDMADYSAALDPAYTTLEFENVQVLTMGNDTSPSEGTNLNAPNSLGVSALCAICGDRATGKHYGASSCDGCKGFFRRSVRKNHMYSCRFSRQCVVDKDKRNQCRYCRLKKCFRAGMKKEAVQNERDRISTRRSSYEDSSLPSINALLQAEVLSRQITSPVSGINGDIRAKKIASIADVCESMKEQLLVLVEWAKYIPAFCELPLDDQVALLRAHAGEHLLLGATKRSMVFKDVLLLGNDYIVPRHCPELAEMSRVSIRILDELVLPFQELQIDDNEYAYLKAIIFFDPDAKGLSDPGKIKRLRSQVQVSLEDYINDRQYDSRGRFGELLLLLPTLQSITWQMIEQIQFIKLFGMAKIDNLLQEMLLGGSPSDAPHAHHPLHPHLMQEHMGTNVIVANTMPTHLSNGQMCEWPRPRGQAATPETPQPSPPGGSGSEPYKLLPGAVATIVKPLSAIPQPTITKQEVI
rRNA inh HTS OD600 – further read-out of rRNA inh HTS, marked with its call; OD600 change, %; measured here: OD600 growth;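 optical density of the mix in the first replicate; 0 = DMSO median and -100 = no signal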
rRNA inh HTS RFP – recorded beside rRNA inh HTS, whose call it bears; RFP signal change, %; measured here: RFP humanized mutant strains;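 first replicate; 0 = DMSO median and -100 = no signal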
* hit, by the source's call; i = inactive; nt = not tested or not shown. This is a subset; count on the stated rates, not on these rows.

SMILES	ALR inh	rRNA inh HTS	rRNA inh HTS OD600	rRNA inh HTS RFP	B2AR ag	FGF22 binding	Ecoli growth	UCH37 DUB inh	HNF4A DNA FP
COc1cc(CN(C(=S)NCC(=O)NC2CCCC2)C2CCCC2)cc(OC)c1OC	-4	nt	nt	nt	-9	nt	0.71	-0.1	0.9
O=C(CN(Cc1ccccc1)S(=O)(=O)c1ccc(Br)cc1)NCC1CCCO1 (stereo not drawn)	nt	-10	-14	0.7	-5	i	0.66	6.8	0.9
CC(=O)c1cccc(NC(=O)C2CCCN(S(=O)(=O)c3ccccc3)C2)c1 (stereo not drawn)	-1	nt	nt	nt	-3	nt	0.67	0.0	-1.8
CN(Cc1cn(C)c2ccccc12)C(=S)Nc1cc(F)cc(F)c1	-1	nt	nt	nt	4	nt	0.7	-0.4	2.3
Cc1cc(/C=N\NC(=O)COc2cccc3cccnc23)c(C)n1-c1ccc(Br)cc1	-3	nt	nt	nt	-8	nt	nt	nt	3.3
CCOC(=O)N1CCN(C(=O)COc2cc(=O)n(CC)c3ccccc23)CC1	-23	nt	nt	nt	-4	nt	0.68	3.5	-0.3
O=C(O)c1cccc(S(=O)(=O)N2CCCC(c3nc4c(nnn4Cc4ccc(F)cc4)c(=O)[nH]3)C2)c1 (stereo not drawn)	22	4	10	3.0	-3	i	0.71	0.9	1.3
CCCCn1c(=O)nc2n(-c3ccc(C)cc3)c3ccccc3cc-2c1=O	-2	-2	-14	2.7	3	i	0.68	-190	2.4
CCOC(=O)C1=C(C)N=C2SC(C)C(=O)N2C1c1ccc(OCC)c(OCC)c1 (stereo not drawn)	6	nt	nt	nt	-4	nt	0.7	2.2	1.5
O=C(COc1ccc2ccccc2c1)Nc1cccc2cccnc12	-19	nt	nt	nt	1	nt	0.73	-0.6	3.0
COc1ccc(CC(=O)Nc2ccc(-c3cn4ccccc4n3)cc2)cc1OC	-10	nt	nt	nt	34	nt	nt	-20	-2.6
COc1ccc(CN(C)C(=O)[C@H]2O[C@@H](n3ccc(N)nc3=O)[C@H](O)[C@@H]2O)cc1OC	nt	12	3	-0.4	nt	i	nt	nt	2.3
O=C(O)c1ccccc1-c1ccc(/C=C/c2cc(C(F)(F)F)[nH]c(=O)n2)o1	nt	56	23	18	1	i	0.64	-27	47
Cc1ccc(N=Cc2c(O)ccc3ccccc23)cc1F	-12	10	-4	-2.1	12	i	0.74	4.2	11
O=S(=O)(O)c1cc(O)ccc1O	16	6	9	5.3	0	i	nt	-1.6	-1.1
CCN1C(=O)CC(N2CCN(c3ccc(C(=O)c4ccncc4)cc3)CC2)C1=O (stereo not drawn)	-4	nt	nt	nt	-7	nt	0.68	13	-4.3
Cc1cccc(C)c1NC(=O)CSc1nnc(NC(=O)CN2CCOCC2)s1	16	nt	nt	nt	-4	nt	0.66	-0.5	-1.7
CC1(C)CC(=O)C2=C(C1)OC(c1ccncc1)C(C#N)=C2N (stereo not drawn)	8	nt	nt	nt	1	nt	0.65	2.2	1.2
CCCC(CCC)C(=O)Nc1ccc2c(c1)N(C(=O)CCN1CCN(C)CC1)c1ccccc1CC2	-6	-2	-18	9.7	8	i	0.69	-1.1	0.0
C/C(Cc1ccccc1)=N\NC(=O)CNC(=O)Cc1ccc(Cl)cc1	-3	12	7	3.0	-7	i	nt	nt	6.5
CNC(=O)NC(=O)C(NC1CCCc2ccccc21)c1ccccc1 (stereo not drawn)	10	-3	-11	2.5	17	i	nt	nt	1.1
O=C(CCc1ccccc1)NCc1ccc2c(c1)OCO2	-2	-1	-5	-5.4	-11	i	0.65	0.2	-0.9
CCc1ccc(C2C(C#N)=C(N)N(N(C)C)C3=C2C(=O)CCC3)s1 (stereo not drawn)	-16	nt	nt	nt	5	nt	0.63	5.8	0.2
Cc1cc(C(F)(F)F)n2nc(C)c(-c3ccc(Cl)cc3)c2n1	-2	-6	-7	5.8	-5	i	0.71	1.6	-0.3
Cn1nc(C(C)(C)C)cc1C(=O)N1CCCC(c2cc(C(=O)Nc3ccccc3Cl)no2)C1 (stereo not drawn)	nt	0	-17	9.4	nt	i	nt	nt	2.3
CC(C)(C)OC(=O)N1CCN(C(=O)c2[nH]cnc2C(=O)N[C@@H](Cc2ccccc2)C(=O)OCc2ccccc2)CC1	16	2	-3	13	15	i	nt	4.1	-9.8
CC(C)CNC(=O)CC(c1ccccc1)c1ccccc1	-4	7	14	-1.1	-2	i	0.69	-2.2	0.5
O=C(c1ccco1)N1CCN(Cc2cc(=O)c(OCc3ccc(F)cc3)co2)CC1	-10	4	2	-1.3	-4	i	0.62	4.1	3.0
Cc1cccc(OC(C)C(=O)Nc2cc(Cl)ccc2-n2cncn2)c1 (stereo not drawn)	2	-24	-35	-6.5	1	i	0.64	2.6	-0.8
CCCN(C(=O)C1CCCN(c2ncnc3c2nc2n3CCCCC2)C1)c1ccc(F)cc1 (stereo not drawn)	-4	1	5	-2.2	2	i	0.66	0.8	-0.3
CN(C(=O)c1ccccn1)C1(C(=O)NC2CCCCC2)CCCCC1	nt	nt	nt	nt	-4	nt	0.71	1.1	3.8
O=C(/C=C/NNC(=O)c1cccc(Br)c1)c1ccccc1	-7	nt	nt	nt	-5	nt	nt	0.7	-2.4
CCCS(=O)(=O)NC(=O)C1(C)CCN(C(=O)c2snnc2C)C1 (stereo not drawn)	nt	6	9	1.0	nt	i	nt	nt	-1.6
CCC1CN(C(=O)N2CCC(C(=O)NCc3ccc(C)o3)CC2)c2ccccc2O1 (stereo not drawn)	40	2	6	-1.2	-5	i	nt	nt	5.3
COc1ccc(C(=O)N2CCN(c3ccc(C(C)=O)cc3F)CC2)cc1S(=O)(=O)NC1CC1	2	2	-4	-3.3	1	i	0.68	5.5	-2.1
O=C(O)C1C2C=CC(C2)C1C(=O)NCc1ccoc1 (stereo not drawn)	0	5	7	0.7	7	i	0.72	0.4	-8.9
CC1Cc2ccccc2N1S(=O)(=O)c1cccc(C(=O)NCCCO)c1 (stereo not drawn)	-17	nt	nt	nt	2	nt	0.71	0.3	-2.4
CCN(CC)c1ccc(/C=N/NC(=O)c2cnccn2)cc1	nt	12	14	-1.4	15	i	nt	nt	-0.5
C=CCN1C(=O)C(O)(CC(=O)c2ccco2)c2cc(Br)ccc21 (stereo not drawn)	-3	6	-1	-3.7	5	i	0.76	0.8	-2.1
O=C1CN(S(=O)(=O)c2ccc(Cl)cc2)c2ccccc2N1	-4	-22*	-5.6*	1.1*	-3	i	0.71	2.5	2.1
CCN(CC)C(=O)c1cccc(NC(=O)c2ccc3c(=O)n4c(nc3c2)CCC4)c1	0	-3	1	1.4	-3	i	0.7	0.5	-1.4
COc1ccc(C(=O)NC(=S)Nc2ccc(N3CCOCC3)cc2)cc1Cl	nt	8	8	2.7	10	i	0.69	1.1	0.2
Cc1cc(Br)ccc1NC(=O)CN1C(=O)C2C3CC(c4ccccc4)C(C3)C2C1=O (stereo not drawn)	-5	-27	-34	16	-3	i	0.66	4.5	3.2
COc1ccccc1NS(=O)(=O)c1cccc(C(=O)NCC(c2ccco2)N(C)C)c1 (stereo not drawn)	0	6	6	-1.4	3	i	0.69	-2.6	2.0
O=C(NCc1ccc2c(c1)OCO2)C1CC(=O)N(C2CCCCCC2)C1 (stereo not drawn)	-2	5	2	4.8	-1	i	0.71	2.2	1.1
CCNc1nc(NC(C)C)nc(N2CC(=O)N(CC(=O)OCC)C2=N)n1	1	nt	nt	nt	-2	nt	0.68	1.5	1.7
CC(c1ccccc1)C1NC(C(=O)O)CS1 (stereo not drawn)	0	nt	nt	nt	-3	nt	0.7	2.8	0.2
COc1cccc(NC(=O)C(=O)NCCCN2CCCC2=O)c1	nt	5	11	-0.4	1	i	0.7	3.0	-2.3
CCOCCc1nnc(NC(=O)Cc2ccc(Br)cc2)s1	-1	11	7	-1.2	-2	i	0.68	2.7	2.3
CC(C)N(C)S(=O)(=O)c1ccc(Cl)c(C(=O)O)c1	1	24	13	1.4	0	i	0.71	-0.1	0.7
O=C(CSCCO)Nc1ccccc1	-1	nt	nt	nt	0	nt	0.74	0.5	2.5
Cc1cc(-c2ccc(C)c(S(=O)(=O)NCc3cccc(Br)c3)c2)on1	2	-15	-34	5.2	-13	i	0.68	-0.5	1.9
CSc1ccc(C(=O)C2CCCN(C(=O)c3nn(C)c(=O)c4ccccc34)C2)cc1 (stereo not drawn)	-1	-31	-51	-5.4	-10	i	0.72	1.7	-0.2
CCOc1ccccc1N(CC(=O)N1CCCC1)S(C)(=O)=O	3	22	16	1.0	-12	i	0.62	1.7	-1.7

14 entries from above, bar-delimited:
mol | ALR inh | rRNA inh HTS | rRNA inh HTS OD600 | rRNA inh HTS RFP | B2AR ag | FGF22 binding | Ecoli growth | UCH37 DUB inh | HNF4A DNA FP
CCN(CC)C(=O)c1cccc(NC(=O)c2ccc3c(=O)n4c(nc3c2)CCC4)c1 | 0 | -3 | 1 | 1.4 | -3 | i | 0.7 | 0.5 | -1.4
COc1ccc(C(=O)NC(=S)Nc2ccc(N3CCOCC3)cc2)cc1Cl | nt | 8 | 8 | 2.7 | 10 | i | 0.69 | 1.1 | 0.2
Cc1cc(Br)ccc1NC(=O)CN1C(=O)C2C3CC(c4ccccc4)C(C3)C2C1=O (stereo not drawn) | -5 | -27 | -34 | 16 | -3 | i | 0.66 | 4.5 | 3.2
COc1ccccc1NS(=O)(=O)c1cccc(C(=O)NCC(c2ccco2)N(C)C)c1 (stereo not drawn) | 0 | 6 | 6 | -1.4 | 3 | i | 0.69 | -2.6 | 2.0
O=C(NCc1ccc2c(c1)OCO2)C1CC(=O)N(C2CCCCCC2)C1 (stereo not drawn) | -2 | 5 | 2 | 4.8 | -1 | i | 0.71 | 2.2 | 1.1
CCNc1nc(NC(C)C)nc(N2CC(=O)N(CC(=O)OCC)C2=N)n1 | 1 | nt | nt | nt | -2 | nt | 0.68 | 1.5 | 1.7
CC(c1ccccc1)C1NC(C(=O)O)CS1 (stereo not drawn) | 0 | nt | nt | nt | -3 | nt | 0.7 | 2.8 | 0.2
COc1cccc(NC(=O)C(=O)NCCCN2CCCC2=O)c1 | nt | 5 | 11 | -0.4 | 1 | i | 0.7 | 3.0 | -2.3
CCOCCc1nnc(NC(=O)Cc2ccc(Br)cc2)s1 | -1 | 11 | 7 | -1.2 | -2 | i | 0.68 | 2.7 | 2.3
CC(C)N(C)S(=O)(=O)c1ccc(Cl)c(C(=O)O)c1 | 1 | 24 | 13 | 1.4 | 0 | i | 0.71 | -0.1 | 0.7
O=C(CSCCO)Nc1ccccc1 | -1 | nt | nt | nt | 0 | nt | 0.74 | 0.5 | 2.5
Cc1cc(-c2ccc(C)c(S(=O)(=O)NCc3cccc(Br)c3)c2)on1 | 2 | -15 | -34 | 5.2 | -13 | i | 0.68 | -0.5 | 1.9
CSc1ccc(C(=O)C2CCCN(C(=O)c3nn(C)c(=O)c4ccccc34)C2)cc1 (stereo not drawn) | -1 | -31 | -51 | -5.4 | -10 | i | 0.72 | 1.7 | -0.2
CCOc1ccccc1N(CC(=O)N1CCCC1)S(C)(=O)=O | 3 | 22 | 16 | 1.0 | -12 | i | 0.62 | 1.7 | -1.7
